Compound activity: PubChem, National Center for Advancing Translational Sciences (NCATS)
Six1-Eya2 inh = blocks human Six1 binding to Eya2; Q15475+O00167; activity change, % (test concentration not listed); AlphaScreen GST-Six1/His-Eya2 binding, biochemical; active compounds read low; control for the full effect not named in the record; AID 651725; actives 0.56% (n = 360,000); in the data active = activity change below about -65%; inconclusive = about -30% to -65%; inactive = above about -30%; note: % is set by controls: 0 for no effect and ±100 for the full control effect
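Six1/Eya2 binding was read as AlphaScreen signal after compounds were pinned into GST-Six1 plus His-tagged Eya2 (5X stock 250/500 nM) in pH 8.0 Tris/NaCl/TCEP buffer, beads added, then incubated 1 h, 37 C, dark.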
Sfp inh = inhibitors of Bacillus subtilis Sfp phosphopantetheinyl transferase. Biochemical Sfp PPTase activity, qHTS. actives 3.5% (n = 310,000). AID 1490. Potency, µM, inactives show max response, negative = inhibition, usual class: inhibitors. Q9F4F7; active = well fitted inhibition curve with a large enough effect; inconclusive = small, poorly fitted or top-dose-only effect, or another doubt; inactive = no such curve, though single readings can be large or run the other way;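 note: the enzyme is Sfp with the accession as filed and its product quenches rhodamine fluorescence; potency is the fitted concentration of half-maximal effect; 0% = enzyme reaction without inhibitor and -100% = no enzyme wells; top concentration of the series not given in the record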
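Step 1, compound plus 15 nM Sfp-PPTase, 15 min, room temperature. Step 2, add rhodamine-CoA (5 uM) and BHQ-2-YbbR (12.5 uM). Step 3, read 525/598 nm fluorescence at 0 and 30 min.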
TRPV1 potentiator = potentiators of human vanilloid receptor 1 (TRPV1); Q8NER1; actives 0.02% (n = 320,000); potentiation, % at 8.33 µM; AID 540277; TRPV1-expressing cells, Fluo-8 calcium influx, capsaicin EC20 potentiation; host cell line not named in the record; control for the full effect not named in the record; active means potentiation above 80%; inconclusive means 30% to 80%; inactive means below 30%; note: 0% is about no effect
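TRPV1-expressing cells were cultured overnight at 35.5C and loaded with Fluo-8 calcium dye for 40 to 90 min at room temperature. After a 10 s baseline, compound was added and calcium influx was read kinetically for 3 min (ex 480/em 520 nm).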
CtBP-E1A blk = blocks the CtBP interaction with E1A; AlphaScreen GST-E1A/His-CtBP binding, 1536-well; active compounds read low; control for the full effect not named in the record; AID 651724; activity change, % (test concentration not listed); actives 0.49% (n = 340,000); in the data active means activity change below about -65%; inconclusive means about -30% to -65%; inactive means above about -30%; note: % is set by controls: 0 for no effect and ±100 for the full control effect
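Protein mix (5X: 125 nM each GST-E1A, His-CtBP) was incubated with pinned compound 2 h at 37 deg C in dark, in 50 mM Tris pH 8.0 buffer with 300 mM NaCl. Glutathione donor and nickel acceptor beads followed; AlphaScreen signal read after 1 h.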
PINK1 modulator = changes PINK1 expression. Potency, µM (doses to about 76.6 µM), without a hit: top-dose activation (PINK1 increase), usual class: activators. actives 0.2% (n = 410,000). PINK1 immunofluorescence, high-content cytometry, 24 h; active = well fitted activation curve with a large enough effect; inconclusive = small, poorly fitted or top-dose-only effect; inactive = flat fitted curve, though single readings scatter; cell line not stated here;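 note: potency is the fitted concentration of half-maximal effect; % of control where 0% means no effect; nearly all actives have a fitted effect of over 65% in size; a mitochondrial uncoupler was the plate control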
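Decision-based qHTS: stable cells, 24 h exposure to five compound concentrations, CCCP as control. Fixed cells stained for PINK1 plus nuclear, mitochondrial and cell markers, cytometer read.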
D2 PAM = positive allosteric modulators of human D2 dopamine receptor. AID 624464. actives 0.23% (n = 360,000). DiscoveRx D2 beta-arrestin cells, luminescence, 90 min; 100% = 57 uM dopamine signal. potentiation, % (no concentration beside the values); active = potentiation of 50% or more; inconclusive = 30% to 50%; inactive = 30% or less;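 note: compound concentration not given in the record; tested on top of an EC20 dose of dopamine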
Target sequence (P14416 whole entry, looked up): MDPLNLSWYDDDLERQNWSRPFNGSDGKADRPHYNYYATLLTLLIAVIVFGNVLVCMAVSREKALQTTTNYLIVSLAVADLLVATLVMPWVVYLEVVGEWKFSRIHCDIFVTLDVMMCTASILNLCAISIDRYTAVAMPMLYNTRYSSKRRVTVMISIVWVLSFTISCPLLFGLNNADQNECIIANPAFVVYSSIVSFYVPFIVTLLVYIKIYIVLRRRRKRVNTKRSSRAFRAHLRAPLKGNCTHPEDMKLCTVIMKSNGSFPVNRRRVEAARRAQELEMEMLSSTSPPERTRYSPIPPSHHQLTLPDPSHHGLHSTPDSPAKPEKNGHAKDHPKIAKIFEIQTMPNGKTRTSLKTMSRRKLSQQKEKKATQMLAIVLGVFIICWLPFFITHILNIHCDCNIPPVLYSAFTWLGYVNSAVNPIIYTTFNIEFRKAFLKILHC
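PathHunter beta-arrestin assay in DiscoveRx D2 cells. Compounds were added with an EC20 of dopamine (50 nM final) for 90 min at 37 deg C. Luminescence was read 1 h after detection reagent, with 57 uM dopamine as the EC100 control.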
D2 agonist = activates the human D2 dopamine receptor | P14416 | DiscoveRx PathHunter D2 beta-arrestin, luminescence, 90 min; 100% = 57 uM dopamine signal | activation, % (no concentration beside the values) | actives 0.084% (n = 360,000); in the data active = activation above about 40%; inconclusive = about 15% to 40%; inactive = below about 15%; note: compound concentration not given in the record; the text of the record calls up to 30% inactive
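Agonist mode: compounds alone added to overnight-plated D2 PathHunter cells for 90 min at 37 C, with 57 uM final dopamine (EC100) defining full response. Beta-arrestin recruitment detected by chemiluminescent reagent, read after 1 h at ambient temperature.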
The depositor's hits bear a star; ? = inconclusive; nt = no result given; & = joins results of further samples; [ ] = another dose, or the depositor's remark.

Each structure is followed by: D2 agonist | TRPV1 potentiator | CtBP-E1A blk | Six1-Eya2 inh | Sfp inh | PINK1 modulator | D2 PAM
CC(C)CNC(=S)NNC(=O)c1nn(C)cc1Cl
  -1.4 | -1 | -6 | -7 | 19% | -0.1% | -2
O=C(NCc1ccccc1)C(c1c(F)cccc1Cl)N(C(=O)c1csnn1)C1CC1 (centres undefined)
  -2.0 | 8 | 5 | 5 | 9% | -1.9% | -3
O=S(=O)(c1ccccc1)C1CC1(c1ccccc1)c1ccccc1 (centres undefined)
  -2.7 | nt | 9 | 2 | nt | 0.5% | -11
Cc1sc2ncn(CC(=O)Nc3cccc(S(N)(=O)=O)c3)c(=O)c2c1-c1ccccc1
  6.1 | ? | -8 | 0 | 3% | 3.5% | -8
Cc1ccc(S(=O)(=O)CCC(=O)Nc2nccs2)cc1
  -2.4 | 3 | 2 | 7 | 7% | -0.2% | -2
CC(C)NC(=O)NC(=O)CSc1ccc(S(=O)(=O)N2CCOCC2)cn1
  -0.9 | 8 | -20 | 9 | nt | -0.3% | 0
CCC(C)n1c(SC(C)C#N)nc2ccccc2c1=O (centres undefined)
  -0.2 | 6 | 12 | 3 | 12% | ? | -24
O=C(CSc1nnnn1-c1cccc2c1CCCC2)NC1CCCC1
  -2.7 | -46 | 4 | -2 | 6% | -2.2% | 16
Cc1ccc(C)c(NC(=O)COC(=O)c2nc(Cl)ccc2Cl)c1
  0.4 | 3 | nt | 0 | nt | 0.5% | -1
CC(/C=C/c1ccc2c(c1)OCO2)=N/NC(=O)CNc1ccc(C)cc1
  1.0 | nt | -1 | -6 | nt | 3.5%[38.3 µM] | -1
COc1ccc(C)cc1NC(=O)CCNS(=O)(=O)c1cccc2nonc12
  -1.6 | 3 | 4 | -3 | 0% | 1.3%&1.4% | -7
CCOC(=O)Cc1csc(N/N=C/c2ccccc2)n1
  3.2 | 0 | 6 | -6 | -15% | 2.2% | 0
O=C(O)CCC(C(=O)O)n1c(O)c(C2=c3ccccc3=NC2=O)sc1=S (centres undefined)
  -3.8 | 2 | -4 | -15 | -28% | 0.0% | -23
c1ccc(OCCSc2nc3ccccc3[nH]2)cc1
  -2.1 | -18 | -1 | -1 | 6% | 0.3% | -10
CCCOc1ccccc1C(=O)NC(CO)C(=O)O (centres undefined)
  -0.5 | -14 | -7 | 10 | 5% | -2.2% | -11
CC1Cc2nc(SCC(=O)NCC3CCCO3)n(-c3ccc(F)cc3)c(=O)c2S1 (centres undefined)
  -1.6 | 5 | -2 | 0 | -2% | -0.6% | 0
O=C(NC1CCCc2ccccc21)C1CCN(c2nnc(-n3cccc3)s2)CC1 (centres undefined)
  -1.1 | -2 | -14 | -10 | -21% | 2.6% | -6
O=C(CO/N=C/c1ccccc1Cl)N1CCCc2ccccc21
  -3.1 | 0 | 22 | 1 | 0% | -0.1% | -21
Cc1[nH]nc2c1C1(CCN(Cc3ccccc3)CC1)C(C#N)=C(N)O2
  6.2 | -17 | -8 | 1 | -21% | -0.4% | -7
COc1cc(C2CC(=O)Oc3cc(C)c(Cl)c(C)c32)cc(OC)c1OC (centres undefined)
  -2.9 | nt | -15 | -2 | nt | 2.0% | -14

(listing goes on)
Each structure is followed by: D2 agonist | TRPV1 potentiator | CtBP-E1A blk | Six1-Eya2 inh | Sfp inh | PINK1 modulator | D2 PAM
Cc1cc(C)nc(SCc2ccc(C(=O)N/N=C3\CC(C)CC(C)(C)C3)cc2)n1 (centres undefined)
  1.1 | 8 | 5 | 1 | 10% | 3.3% | 2
COc1ccc(S(=O)(=O)Nc2ccc(-n3cccc3)cc2)cc1
  -13 | 8 | -4 | -20 | -15% | 3.7% | -7
Cc1ccc(-n2nc(C(=O)c3ccccc3)n3c(=O)c(Cc4ccccc4)nnc23)cc1
  -4.6 | nt | -26 | -20 | nt | 7.8% | -24
Cc1occc1-c1nnc(SCC(=O)Nc2nc3ccccc3s2)o1
  5.6 | 10 | 2 | 3 | 13% | -1.7%[38.3 µM] | -2
COc1ccc(/C=C/C(=O)N2CCN(c3ccccn3)CC2)c(OC)c1OC
  0.0 | 0 | nt | -2 | 13% | 0.8% | -1
CCCn1c(-c2ccccc2)nc2c(=O)n(C)c(=O)[nH]c21
  1.4 | -4 | -6 | 11 | -10% | -1.0% | 0
COc1c(Cl)cc(Cl)cc1C(=O)Nc1ccc(CN2CCCCC2)cc1
  -3.1 | 10 | 3 | 3 | -10% | 6.0% | -9
O=C(O)c1ccccc1C(=O)N(c1ccccc1)c1ccccc1
  -3.4 | nt | nt | -1 | nt | 2.1% | -20
CCOC(=O)N1CCN(C(=O)CCNS(=O)(=O)c2ccc3c(c2)c(=O)n(C)c(=O)n3C)CC1
  -5.7 | -14 | 6 | 3 | 18% | -0.7% | 4
COC(=O)C(C)Sc1nc2c([nH]c3ccccc32)c(=O)n1C (centres undefined)
  -2.4 | -7 | -12 | 4 | 50µM* | 5.5% | 4
COc1ccc([C@H]2C[C@@H](n3cc(C4CC4)nn3)[C@H](O)CN2C(=O)c2cccs2)cc1
  0.1 | nt | 0 | 2 | nt | -0.7% | 4
CCOCCCN1CN(Cc2ccco2)CNC1=S
  4.9 | -4 | -2 | 3 | 40µM* | -0.3% | -3
COc1cccc(-c2ncc3ccccc3c2COC(=O)c2cccc(Br)c2)c1
  -1.0 | 15 | -10 | -10 | nt | 3.0% | -14
CCCc1nn(C)c2c(=O)[nH]c(-c3cc(S(N)(=O)=O)ccc3OCC)nc12
  3.3 | -3 | 2 | 1 | 9% | -1.6% | -3
CCOC(=O)c1ccc2nc(C)c(CC)c(Cl)c2c1
  -0.9 | 3 | 6 | 13 | -8% | 0.3% | -9
Cn1c(C(O)c2ccccc2)nc(Cl)c1Cl (centres undefined)
  -0.1 | -1 | 0 | -1 | 15% | 17%[38.3 µM] | 4
CCOc1ccc(S(=O)(=O)Nc2cccc(C(=O)NCC(c3ccco3)N(C)C)c2)cc1 (centres undefined)
  -0.9 | -3 | -22 | 8 | nt | 0.5% | -23
O=C(COc1ccccc1)Nc1ccccc1N1CCN(c2ccc(F)cc2)CC1
  -1.1 | 1 | -5 | 6 | 7% | 3.9% | 10
CC(C)CN(C(=O)CSc1nncn1-c1ccccc1)c1c(N)n(CC(C)C)c(=O)[nH]c1=O
  -0.8 | 7 | -4 | 6 | -2% | -0.8% | -20
CCOc1ccc(S(=O)(=O)N2CCOCC2)cc1NC(=O)c1ccccc1F
  -3.8 | -23 | 6 | -8 | -8% | 3.4% | -10

Later entries:
Each structure is followed by: D2 agonist | TRPV1 potentiator | CtBP-E1A blk | Six1-Eya2 inh | Sfp inh | PINK1 modulator | D2 PAM
Cc1cccc(C(=O)Nc2ccccc2N2CCN(c3ccc(F)cc3)CC2)c1
  0.0 | -5 | 3 | 13 | -4% | 0.9% | -1
COc1ccc(NC(=O)c2cc(C3CCCCN3C(=O)c3cc(F)ccc3C)on2)c(C)c1 (centres undefined)
  -5.7 | nt | -3 | 2 | nt | 4.3% | -1
Cc1cccc(C)c1NS(=O)(=O)c1ccc2c(c1)C(=O)c1ccccc1C2=O
  11 | 13 | 16 | 6 | -3% | 8.0% | 60*
Cc1ccccc1NC(=S)N(C)C1(c2ccccc2Cl)CCCCC1=O (centres undefined)
  -1.2 | 5 | -1 | 0 | 10% | 8.1%[38.3 µM] | -11
CC(Sc1n[nH]c(N)n1)C(=O)Nc1ccc(Cl)cn1 (centres undefined)
  2.4 | 8 | -4 | 3 | 29% | 1.0% | -4
CCCCn1c(N)c(N(CC(C)C)C(=O)c2cccc(S(=O)(=O)N3CCCCCC3)c2)c(=O)[nH]c1=O
  0.7 | 0 | -14 | -17 | 10% | -1.0% | -31
Cc1cccc(OCc2nc(-c3ccc(Br)o3)no2)c1
  -2.7 | 5 | 10 | 26 | -22% | -1.3% | 0
CC(C)(C)C(=O)NC1CCN(C(=O)N2CCCC2)CC1
  1.9 | -7 | 0 | -2 | 17% | 7.2% | 5
COc1ccc(C(=O)CN2CCN(S(=O)(=O)c3cccc([N+](=O)[O-])c3)CC2)cc1
  1.1 | -2 | 0 | -2 | 6% | 0.1% | -1

Exported tab-delimited: part of the list above
SMILES	D2 agonist	TRPV1 potentiator	CtBP-E1A blk	Six1-Eya2 inh	Sfp inh	PINK1 modulator	D2 PAM
O=C(O)CCC(C(=O)O)n1c(O)c(C2=c3ccccc3=NC2=O)sc1=S (centres undefined)	-3.8	2	-4	-15	-28%	0.0%	-23
c1ccc(OCCSc2nc3ccccc3[nH]2)cc1	-2.1	-18	-1	-1	6%	0.3%	-10
CCCOc1ccccc1C(=O)NC(CO)C(=O)O (centres undefined)	-0.5	-14	-7	10	5%	-2.2%	-11
CC1Cc2nc(SCC(=O)NCC3CCCO3)n(-c3ccc(F)cc3)c(=O)c2S1 (centres undefined)	-1.6	5	-2	0	-2%	-0.6%	0
O=C(NC1CCCc2ccccc21)C1CCN(c2nnc(-n3cccc3)s2)CC1 (centres undefined)	-1.1	-2	-14	-10	-21%	2.6%	-6
O=C(CO/N=C/c1ccccc1Cl)N1CCCc2ccccc21	-3.1	0	22	1	0%	-0.1%	-21
Cc1[nH]nc2c1C1(CCN(Cc3ccccc3)CC1)C(C#N)=C(N)O2	6.2	-17	-8	1	-21%	-0.4%	-7
COc1cc(C2CC(=O)Oc3cc(C)c(Cl)c(C)c32)cc(OC)c1OC (centres undefined)	-2.9	nt	-15	-2	nt	2.0%	-14
Cc1cc(C)nc(SCc2ccc(C(=O)N/N=C3\CC(C)CC(C)(C)C3)cc2)n1 (centres undefined)	1.1	8	5	1	10%	3.3%	2
COc1ccc(S(=O)(=O)Nc2ccc(-n3cccc3)cc2)cc1	-13	8	-4	-20	-15%	3.7%	-7
Cc1ccc(-n2nc(C(=O)c3ccccc3)n3c(=O)c(Cc4ccccc4)nnc23)cc1	-4.6	nt	-26	-20	nt	7.8%	-24
Cc1occc1-c1nnc(SCC(=O)Nc2nc3ccccc3s2)o1	5.6	10	2	3	13%	-1.7%[38.3 µM]	-2
COc1ccc(/C=C/C(=O)N2CCN(c3ccccn3)CC2)c(OC)c1OC	0.0	0	nt	-2	13%	0.8%	-1
CCCn1c(-c2ccccc2)nc2c(=O)n(C)c(=O)[nH]c21	1.4	-4	-6	11	-10%	-1.0%	0
COc1c(Cl)cc(Cl)cc1C(=O)Nc1ccc(CN2CCCCC2)cc1	-3.1	10	3	3	-10%	6.0%	-9
